RecA intein inh = Mtb RecA intein splicing inhibitors, primary screen, biochemical, fluorescence, HTS; Protein RecA (Mycobacterium tuberculosis (strain ATCC 25618 / H37Rv)), P9WHJ3; cell-free RecA intein splicing; inhibition, %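 (about 9 µM by stock and volumes)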; actives 0.75% (n = 290,000); AID 2221, 2009; in the data active means inhibition above about 30%; inconclusive means no clear call, values can overlap the other calls;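 further: 0% = vehicle wells and 100% = reference inhibitor control wells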
Target sequence (P9WHJ3 whole entry, looked up): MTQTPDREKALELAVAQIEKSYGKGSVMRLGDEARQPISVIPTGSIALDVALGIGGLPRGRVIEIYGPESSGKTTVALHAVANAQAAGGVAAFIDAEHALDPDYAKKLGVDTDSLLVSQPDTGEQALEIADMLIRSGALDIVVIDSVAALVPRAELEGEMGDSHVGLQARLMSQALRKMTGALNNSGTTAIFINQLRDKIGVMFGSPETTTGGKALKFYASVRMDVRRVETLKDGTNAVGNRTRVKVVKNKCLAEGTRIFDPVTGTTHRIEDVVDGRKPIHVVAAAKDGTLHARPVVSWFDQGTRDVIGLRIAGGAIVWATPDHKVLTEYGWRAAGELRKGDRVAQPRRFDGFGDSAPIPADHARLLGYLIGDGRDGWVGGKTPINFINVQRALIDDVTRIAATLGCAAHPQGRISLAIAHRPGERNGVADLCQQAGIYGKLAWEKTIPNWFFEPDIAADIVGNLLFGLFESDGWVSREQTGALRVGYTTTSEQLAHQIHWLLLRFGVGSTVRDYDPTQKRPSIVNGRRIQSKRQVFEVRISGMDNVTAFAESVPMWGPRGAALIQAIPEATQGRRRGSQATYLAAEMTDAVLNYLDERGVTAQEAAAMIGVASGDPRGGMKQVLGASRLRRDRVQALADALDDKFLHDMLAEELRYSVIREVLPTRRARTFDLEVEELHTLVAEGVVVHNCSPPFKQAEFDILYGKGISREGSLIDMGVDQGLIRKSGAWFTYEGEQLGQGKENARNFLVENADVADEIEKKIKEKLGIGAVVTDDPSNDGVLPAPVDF
YopH PTP inh = YopH tyrosine phosphatase inhibitors, primary screen, biochemical, fluorescence Ex485/Em525; inhibition, %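 (about 10 µM by stock and volumes)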; actives 0.16% (n = 140,000); AID 898, 2007;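 active means inhibition of 50% or more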;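 further: controls were vehicle for no effect and minimum signal wells for full effect; inactives centre near -20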
Arbovirus inh = antivirals against arbovirus infection, primary screen, cell-based, full library, 10K replicate subset; inhibition, % at 10 µM; actives 0.37% (n = 200,000); arbovirus infection cell-based antiviral screen;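 active means inhibition from about 30%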;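 further: bluetongue infection of BSR cells; cell survival read as ATP light after 72 h; 0% = infected wells without compound and 100% = uninfected wells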
Mtb growth = M. tuberculosis H37Rv growth inhibitors, H37Rv strain (AID 1626). M. tuberculosis H37Rv growth inhibition; higher % means a stronger effect. inhibition, % at 10 µM, or IC50 in µM where a hit was titrated. actives 0.95% (n = 220,000);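 active means confirmed in a dose series; inconclusive means inhibition above 80% but not taken into the dose series; inactive means below 80% or under 30% at every dose of the series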;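 further: bacteria incubated seven days before Alamar blue readout; 0% = bacteria only wells and 100% = bacteria with antibiotic wells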
Mtb bLac sens = beta-lactam sensitization of Mtb H37Rv, H37Rv; M. tuberculosis H37Rv growth with meropenem, percent inhibition; hits of this screen are not shown here; inhibition, % at 25 µM; actives 0.27% (n = 330,000);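 active means about 74% or more and at least 40 points above the plate without the antibiotic, then above 30% in a dose series; inconclusive means first-round hits that could not be retested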;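 further: growth measured after seven days incubation then overnight dye step; 0% = bacteria only wells and 100% = bacteria with antibiotic; twin plates without the antibiotic show which effects depend on it; some results filed as inactive read as strong as hits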
Arbovirus inh repeat = further read-out of Arbovirus inh, marked with its call; inhibition, %; measured here: 10K subset replicate screen; many hits read low in the repeat;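 first of two repeat runs on a subset; 0% = infected and 100% = uninfected wells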
Numbers without * were called inactive; u = inconclusive; x = no result given; & = joins results of further samples.

SMILES	RecA intein inh	YopH PTP inh	Arbovirus inh	Mtb growth	Mtb bLac sens	others
CCc1ccc[n+](-c2[nH]c(=O)sc2/C=N/N=C(\N)[O-])c1	0.7	x	x	x	4
Cc1cccc(NC(=O)Nc2ccc(S(N)(=O)=O)cc2)c1	-0.6	x	x	-5%	0
CCOc1ccc(NC(=O)c2ccc(CC)s2)c([N+](=O)[O-])c1	-4.6	x	0	4%	-2
Cn1c(=O)c2c(nc(Cc3ccc(N)cc3)n2C)n(C)c1=O	-0.8	x	x	-5%	-2
CCC(C(=O)c1ccccc1)P(=O)(NN)c1ccccc1 (stereo not drawn)	-2.5	x	x	-8%	7
O=C(Oc1oc(-c2ccco2)nc1C=Nc1ccccc1)c1ccco1	0.4	5	-2	x	62
CCCCOc1ccc(C2=NNC(=O)CC2)cc1	0.9	-32	-4	1%	7
O=C(NCc1cccc(C(F)(F)F)c1)c1cc(-c2ccccc2)nn1CC1CC(c2cccnc2)=NO1 (stereo not drawn)	5.3	x	x	-1%	20
CCC1Oc2ccccc2N(CC(=O)NCCN2CCCC2)C1=O (stereo not drawn)	-4.7	x	x	x	-5
CCOC(=O)CSc1c(-c2cccs2)[nH]c2ccccc12	12	-27	-16	7%	-3
CCC(C(=O)OCC(=O)N1C(C)CCCC1C)c1ccccc1 (stereo not drawn)	2.6	x	x	x	-4
Cc1ccccc1NC(=O)C(C)n1c2ccccc2c2nc(=O)cc(C)n21 (stereo not drawn)	-0.8	x	x	x	-4
CC12CCC(C(=O)Nc3ccccc3Cl)(C(Br)C1=O)C2(C)C (stereo not drawn)	-0.4	-44	-6	0%	1
CN(CC(=O)N1CCCCC1)S(=O)(=O)c1cccc2nsnc12	5.2	x	x	x	1
CCCCc1ccc(NC(=O)CC(C)C)cc1	-0.4	x	4	6µM*	97
O=C(Cn1cc2c(n1)CCCC2)NC1CCCCCC1	-1.3	2	-3	-4%	-4	Arbovirus inh repeat=3
Nn1c(SCC(=O)Nc2ccc3c(c2)OCCO3)nnc1-c1ccncc1	2.0	x	x	x	11
Cc1cc([N+](=O)[O-])ccc1NC(=O)COc1nsnc1N1CCOCC1	0.4	x	x	x	3
COc1cc(NC(=O)CN(C)S(=O)(=O)c2ccc(C)cc2)cc(OC)c1	1.5	27	7	4%	5
CCc1ccccc1NC(=O)CCN1C(=O)C2C3CCC(C3)C2C1=O (stereo not drawn)	-1.6	x	1	-7%	-5
CCOc1ccc(N(C)S(=O)(=O)c2ccc3[nH]cc(C(=O)NCC4CCCO4)c(=O)c3c2)cc1 (stereo not drawn)	-12	-23	7	5%	-10
Cc1c(NC(=O)CN2CCN(C(c3ccccc3)c3ccccc3)CC2)c(=O)n(-c2ccccc2)n1C	0.8	-13	2	-11%	-8
Cc1nc2cc(NCc3ccccc3O)ccc2n1Cc1ccccc1	0.1	x	9	-5%	4
CC(=O)c1ccc(NC(=O)CNCC(c2ccccc2)N(C)C)cc1 (stereo not drawn)	1.3	x	9	-6%	2
Cc1nn(-c2ccccc2)c(C)c1C1C(C#N)=C(N)Oc2n[nH]c(C)c21 (stereo not drawn)	63*	-29	-2	5%	1
Cc1cc(C)c(C2C(C#N)=C(N)Oc3n[nH]c(C)c32)cc1CN1CCCC1 (stereo not drawn)	25	2	-3	-4%	-12
CC(=O)Nc1ccc(SCC(=O)NCCc2ccc(F)cc2)cc1	-1.7	x	x	x	8
COC(=O)Cn1cc(/C=C/c2cc[n+](C)cc2)c2ccccc21	9.7	x	x	x	3
Cc1c(O)ccc(/C=N/Nc2ncccc2[N+](=O)[O-])c1O	-0.4	x	x	x	5
O=C(c1nc2ccc(Cl)cn2c1CNCCc1cnccn1)N1CCCCCCC1	0.4	x	x	x	u
O=S(=O)(Nc1ncccn1)c1ccc(NC(=S)Nc2ccc(Cl)cc2)cc1	3.7	x	x	0%	-4
Oc1ccc2c3c1O[C@H]1c4[nH]c5ccccc5c4C[C@@]4(O)C(C2)N(CC2CC2)CC[C@]314	-1.5	x	-13	-11%&1%	-6
O=C1/C(=C/c2ccccn2)SC(=S)N1CCc1ccccc1	2.6	x	x	2%	-3
O=C(O)c1cccc(S(=O)(=O)Nc2ccc3c(c2)CCC3)c1	1.1	x	x	x	3
CCOC(=O)CSc1nnc(CNc2cccc(Cl)c2)n1C	-3.3	-11	-1	-4%	-2
COC(=O)Cc1csc(Nc2ccc(F)c(Cl)c2)n1	2.0	x	12	4%	1
Cc1ccsc1CNC12CC3CC(CC(C3)C1)C2	5.2	x	-5	-6%	-1
O=C(Nc1nc2ccccc2n1Cc1ccccc1)c1ccc(COc2ccccc2[N+](=O)[O-])o1	-2.6	-6	-33	4%	u
COc1cc(CNc2cccc3[nH]c(C(F)(F)F)nc23)cc(OC)c1	2.9	x	x	x	4
CCn1c(C(=O)N2CCC(C(=O)NCCCSC3CCCCC3)CC2)cc2sccc21	6.6	-41	-15	8%	8

Retrieved by structure from the entries so far (7):
SMILES	RecA intein inh	YopH PTP inh	Arbovirus inh	Mtb growth	Mtb bLac sens	others
CCOC(=O)CSc1nnc(CNc2cccc(Cl)c2)n1C	-3.3	-11	-1	-4%	-2
O=C(O)c1cccc(S(=O)(=O)Nc2ccc3c(c2)CCC3)c1	1.1	x	x	x	3
CCn1c(C(=O)N2CCC(C(=O)NCCCSC3CCCCC3)CC2)cc2sccc21	6.6	-41	-15	8%	8
Oc1ccc2c3c1O[C@H]1c4[nH]c5ccccc5c4C[C@@]4(O)C(C2)N(CC2CC2)CC[C@]314	-1.5	x	-13	-11%&1%	-6
O=C(Nc1nc2ccccc2n1Cc1ccccc1)c1ccc(COc2ccccc2[N+](=O)[O-])o1	-2.6	-6	-33	4%	u
Cc1ccsc1CNC12CC3CC(CC(C3)C1)C2	5.2	x	-5	-6%	-1
O=C1/C(=C/c2ccccn2)SC(=S)N1CCc1ccccc1	2.6	x	x	2%	-3

(more compounds)
SMILES	RecA intein inh	YopH PTP inh	Arbovirus inh	Mtb growth	Mtb bLac sens	others
COc1ccc([N+](=O)[O-])cc1/C=N/Nc1nn[nH]n1	-1.2	x	21	-1%	0
Cc1cc(N2CCOCC2)nc2ccc(NC(=O)CCC(=O)N3CCC4(CC3)OCCO4)cc12	-0.9	-31	12	x	12
CCC(CO)NC1=C([N+](=O)[O-])C(=O)CC(C)(C)C1 (stereo not drawn)	-2.5	-16	2	1%	-3
O=C(c1ccc2ccccc2c1)N1CCCCC1	-0.4	x	x	x	-1
COc1ccc(C(=O)OC(C)C(=O)NC(C)CCc2ccccc2)c(OC)c1 (stereo not drawn)	3.8	x	x	x	-4
O=C(NCc1cccnc1)c1ccc(CS(=O)(=O)Cc2ccc(Cl)cc2)o1	-1.4	-43	10	-6%	-8
c1ccc(-c2nnc(CSc3nnc(-c4cccs4)o3)o2)cc1	3.2	-52	5	39%	93
Cc1cccnc1NC(=O)COc1ccc2oc3c(c2c1)CCCC3	2.7	-29	12	34%	88
O=C(NC1CCS(=O)(=O)C1)Oc1ccc(Cl)cc1 (stereo not drawn)	1.9	-26	-5	-6%	-21
CCC(=O)N1CCCc2ccccc21	0.0	x	x	3%	-8
CSc1ccc(S(=O)(=O)Nc2ccc(N3CCOCC3)c(Cl)c2)cc1	0.6	-4	15	-1%	98
Cc1ccc(C(=O)N/C(=C\c2cn(C)c3ccccc23)C(=O)NCCCn2ccnc2)cc1	-1.3	x	x	x	-3
COc1cc(CNc2ccc3[nH]c(=O)[nH]c3c2)ccc1OCc1c(F)cccc1Cl	0.1	x	x	x	2
Cn1c(=O)c(=O)n(C)c2cc(S(=O)(=O)CCC(=O)Nc3ccc(F)cc3)ccc21	0.4	x	x	x	3
CN(CC(=O)Nc1ccccc1Cl)C(=O)C1CCN(S(=O)(=O)c2ccc3c(c2)OCCO3)CC1	-0.1	x	x	x	2
Cc1ccc(/C=N/NC(=O)CN2C(=O)CSc3ccccc32)o1	1.0	x	x	3%	-6
O=C(COc1ccccc1[N+](=O)[O-])Nc1ccc(NC(=O)c2cc3ccccc3o2)cc1	0.4	x	-10	8%	1
Cc1cc(C(=O)COC(=O)c2ccc(O)cc2)c(C)n1CC1CCCO1 (stereo not drawn)	-1.2	x	-1	4%	-1
O=C(O)COc1cccc2ccccc12	7.6	-14	7	3%	x
Cc1ccc(Cn2ccc(NC(=O)c3nc4ncccn4n3)n2)cc1	-0.2	-3	7	-6%	-9
O=C(N/N=C/c1c(O)ccc2ccccc12)Nc1ccccc1	-4.0	x	x	x	0
O=C1Cc2ccccc2C(=O)N1c1cccc(Cl)c1	-6.4	x	x	x	1
Cc1noc(C)c1S(=O)(=O)N1CCCC1C(=O)NC(C)(C)C (stereo not drawn)	6.5	x	x	x	u
Cc1cc(C(=O)Nn2c(C3CCCCC3)nc3ccccc3c2=O)ccc1[N+](=O)[O-]	4.6	-25	-1	-2%	1
CCOc1ncccc1C(=O)Nc1ccc2c(C)cc(=O)oc2c1	3.3	-27	2	1%	0
O=C1Nc2ccccc2N(O)N1c1ccc(Cl)c(Cl)c1	-1.2	x	2	38%	-5
O=C(O)COCC(=O)NCc1csc2ccc(Cl)cc12	-1.9	x	x	-7%	5
Cn1cccc1CNCCc1ccccc1F	2.5	-39	1	-4%	-2
COc1ccc(NC(=O)c2cc(S(=O)(=O)N(C)C)ccc2N2CCCC2)cc1Cl	4.6	-6	-9	-1%	-8
CCOc1cc(C)c(C(C)C)cc1S(=O)(=O)n1ccc(C)n1	4.7	-14	9	1%	-5
CCCn1c(=O)c2ccccc2n2c(SCCNCCO)nnc12	-4.8	x	x	x	4
O=C(Nc1ncnc2sc3c(c12)CCCCC3)c1ccco1	-6.0	5	-5	1%	19
CC1(c2nnc(-c3cccc(Cl)c3)o2)CC(c2cccc(Cl)c2)=NO1 (stereo not drawn)	5.3	x	x	6%	-6
O=C(O)CNC(=O)CCCn1nnc2ccccc2c1=O	-1.3	x	x	-10%	1
Cc1ccc(Nc2ccc(N)cc2S(=O)(=O)O)cc1	1.7	x	x	3%	-4
CN1CCN(C(=O)NCC23CC4CC(CC(C4)C2)C3)CC1	2.7	x	0	3%	-1
CCOc1ccc(CCNC(=O)C2CCCN(c3nn4c(=O)cc(C)nc4s3)C2)cc1 (stereo not drawn)	-1.9	-42	0	-12%	-19
CC(C)(C)C(=O)Nc1ccc(C(=O)NNC(=O)Cc2ccccc2)cc1	1.6	-28	2	2%	-9
c1ccc(-n2nnnc2NCCCN2CCOCC2)cc1	-7.4	-3	-2	-7%	-5
COc1ccc(C(=O)NCc2ccc(C(=O)NCC(OC)OC)cc2)cc1OC	-2.6	x	4	-7%	2
COC(=O)Nc1nnc(-c2ccco2)s1	-2.7	x	x	-2%	0
Cc1ccc2[nH]c(=O)c(CN(Cc3ccc4c(c3)OCO4)Cc3nnnn3C3CCCC3)cc2c1	16	-8	-6	x	1
CCS(=O)(=O)NCCCCc1ccccc1	-0.4	7	-1	-8%	-3
O=C(O)c1ccc(COc2ccccc2/C=C2\NC(=O)N(Cc3ccccc3)C2=O)cc1	-4.3	x	-8	5%	3
O=C(CCc1ccccc1)NNC(=O)Cc1ccccc1	-5.5	x	-5	-3%	-3
COc1cc(NC(=O)CSc2nc3c(c(=O)[nH]2)CCCC3)cc(OC)c1OC	0.7	x	0	0%	-7
Cc1ccccc1-c1ccc(CN2CCN(C)C(CCO)C2)cc1 (stereo not drawn)	-0.7	x	x	x	-1
Cn1c(-c2ccccc2O)cc2ccccc21	13	-26	21	7%	6
COc1cc(SC)ccc1C(=O)NCCOc1ccc(Cl)cc1	12	-35	0	12%	60
Cc1cc(C)cc(NC(=O)Cc2ccc(NC3=NC4CS(=O)(=O)CC4S3)cc2)c1 (stereo not drawn)	-0.9	x	x	x	-3

The list continues:
SMILES	RecA intein inh	YopH PTP inh	Arbovirus inh	Mtb growth	Mtb bLac sens	others
CNc1nc(SC)nc(N2CCOCC2)n1	-2.8	-16	-1	-5%	-2
CCOC(=O)c1c(NC(=O)CCCN2CCOCC2)sc2c1CC(C)(C)OC2	-2.6	-19	7	-6%	-3
Cc1cc(C(=O)Nc2cccnc2)no1	0.0	-15	-1	-1%	-3
COc1ccc(NC(=O)Cn2c(=O)n(CC3CCCO3)c(=O)c3cc(OC)c(OC)cc32)c(OC)c1 (stereo not drawn)	2.9	x	x	x	1
CC(C)C(=O)N(c1ccc(F)cc1)C1C=CS(=O)(=O)C1 (stereo not drawn)	7.1	2	4	x	-5
COc1ccc(/C(C)=N/NC(=O)c2ccccc2N)cc1	1.6	x	3	4%	-5
Cc1cc(-c2ccccc2)cc(C)[n+]1Cc1ccccc1	-0.1	x	x	x	-3
O=c1c2ccccc2nc(-c2ccoc2)n1-c1ccccc1Cl	-2.6	-23	-8	-4%	30
O=C(Nc1ccc(O)c2c(=O)cc(-c3ccccc3Cl)oc12)c1cccs1	1.2	x	x	-6%	-7

Bioassay records as filed in PubChem BioAssay.

The list is partial. The share of hits here may be higher or lower than overall.
